Source: PubChem
EPAC2 antag: Validation qHTS for antagonist of cAMP-regulated guanine nucleotide exchange factor 4 (EPAC2); AID 1645886, 2021; Rap guanine nucleotide exchange factor 4 (Homo sapiens), Q8WZA2; EPAC2 Rap1B BODIPY-GDP exchange, fluorescence; 1.7% of 16,000 active; Potency, µM (doses to about 112 µM), inactives show top-dose activity, negative = inhibition, hits mostly inhibitors; active = well fitted inhibition curve with a large enough effect; inconclusive = small, poorly fitted or top-dose-only effect; inactive = no such curve, though single readings can be large or run the other way;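 note: 100% = activation by cAMP agonist control; nearly all actives have a fitted effect of over 40% in size; the record reuses the description of the EPAC1 agonist screen; inactives centre near -10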
Target sequence (Q8WZA2 whole entry, looked up): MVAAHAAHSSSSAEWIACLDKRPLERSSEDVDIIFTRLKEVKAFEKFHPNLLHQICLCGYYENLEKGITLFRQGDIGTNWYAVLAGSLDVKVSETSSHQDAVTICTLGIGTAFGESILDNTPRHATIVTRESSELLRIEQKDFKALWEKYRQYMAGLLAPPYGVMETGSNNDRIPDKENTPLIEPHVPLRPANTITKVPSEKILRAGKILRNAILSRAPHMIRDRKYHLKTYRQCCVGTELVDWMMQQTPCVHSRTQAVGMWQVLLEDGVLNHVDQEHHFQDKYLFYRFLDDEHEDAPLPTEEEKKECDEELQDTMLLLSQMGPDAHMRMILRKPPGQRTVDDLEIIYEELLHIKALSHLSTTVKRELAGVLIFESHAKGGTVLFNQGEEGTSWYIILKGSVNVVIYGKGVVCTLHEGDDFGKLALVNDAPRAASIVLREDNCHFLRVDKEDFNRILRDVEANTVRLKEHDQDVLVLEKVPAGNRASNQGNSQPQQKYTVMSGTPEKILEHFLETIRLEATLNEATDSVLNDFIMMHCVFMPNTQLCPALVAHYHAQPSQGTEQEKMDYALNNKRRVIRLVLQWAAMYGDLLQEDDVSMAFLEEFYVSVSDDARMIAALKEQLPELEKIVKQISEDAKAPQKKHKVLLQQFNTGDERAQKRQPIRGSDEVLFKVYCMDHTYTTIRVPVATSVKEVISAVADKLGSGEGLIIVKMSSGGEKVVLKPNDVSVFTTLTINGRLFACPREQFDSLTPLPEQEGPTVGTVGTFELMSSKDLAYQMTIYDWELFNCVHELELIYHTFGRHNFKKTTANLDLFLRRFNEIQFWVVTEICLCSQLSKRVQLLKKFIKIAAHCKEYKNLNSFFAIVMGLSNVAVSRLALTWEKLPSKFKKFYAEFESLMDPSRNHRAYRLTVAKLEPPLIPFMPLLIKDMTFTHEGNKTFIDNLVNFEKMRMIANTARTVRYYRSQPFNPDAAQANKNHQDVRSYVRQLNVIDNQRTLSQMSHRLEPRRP
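Normalized against a 6.5 mM cAMP agonist control, compounds were tested on 100 nM EPAC2 exchanging Rap1B-bound BODIPY-GDP (250 nM) for 50 uM GDP. Fluorescence drop (ex 480, em 540 nm) was tracked at room temperature over 30 min at 5-min intervals.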
An asterisk follows results filed as active; ? = inconclusive; & = joins results of further samples; [ ] = another dose, or the depositor's remark. Potency is the fitted concentration of half-maximal effect. These rows are one share of the data (hit frequency here may not be typical).

compound | EPAC2 antag
C#CCCCCCCCCCCCC(O)CC(O)COC(C)=O (centres undefined) | ?
CCNc1ncc2nc(-c3ccccc3)c(=O)n(CCOC)c2n1 | -22%
CN(C)c1ccc(/C=C/C=C/c2ccnc3ccccc23)cc1 | 74%[activator]
CC(=O)OC1c2c(ccc3ccc(=O)oc23)OC(C)(C)C1OC(=O)CC(C)C (centres undefined) | 40µM*
Cc1c(C(=O)NCC2Cc3cccc(-c4cncnc4)c3O2)c(-c2ccccc2)nn1-c1ccccc1 (centres undefined) | ?
Cn1c(=O)cnc2cnc(Oc3ccccc3)nc21 | -26%
Cc1ccccc1-c1cncnc1N1CCN(C)CC1 | -1%
COc1ccccc1-c1cncnc1Nc1ccccc1 | -13%
OC(CCN1CCCC1)(c1ccccc1)C1CCCCC1 (centres undefined) | -3%
CO/N=C(\C(=O)N[C@@H]1C(=O)N2C(C(=O)O)=C(CSc3nnnn3C)CS[C@H]12)c1csc(N)n1 | 25%
COc1cccc(-c2cc(NCc3cccc(C)c3)ncn2)c1 | -39%
CC(=O)N1CCC2(CC1)CN(c1ccccc1)C2 | 0%
CCc1nc2cc(C(=O)N3CCC[C@H]3C(=O)OC)cc(NC(=O)c3ccccc3OC)c2n1C | -21%
O=C(Oc1ccccc1)N1CCC[C@@]2(CCN(c3ccccc3)C2)C1 | -25%
COc1cc(=O)n2c(c1C(=O)NCc1ccsc1)CCN(Cc1nc3ccccc3[nH]1)CC2 | -24%
Cc1ccccc1CN1CCc2nnc(C(C)NC(=O)c3cc(F)ccc3F)n2CC1 (centres undefined) | ?
CC(N)(C(=O)O)c1ccc(P(=O)(O)O)cc1 (centres undefined) | -11%
N=C(N)c1ccc2cc(OC(=O)c3ccc(N=C(N)N)cc3)ccc2c1 | -18%[151 µM]
COc1ccccc1C1CN(Cc2cccc3c2OCO3)Cc2ccccc2O1 (centres undefined) | ?
CCCCC[C@H](O)/C=C/[C@H]1C=CC(=O)[C@@H]1C/C=C\CCCC(=O)O | 4%[11.4 µM]
COc1ccc2c(c1)OCC(Cc1ccc(OC)c(OC(C)=O)c1)C2=O (centres undefined) | ?
NC(=O)NCC(N)C(=O)O (centres undefined) | -11%
CC(NC(=O)C1CCOCC1)c1nnc2n1CCN(Cc1ccc3ccccc3c1)CC2 (centres undefined) | -20%
O=C(OCC1(COC(=O)c2cccnc2)CCCC(COC(=O)c2cccnc2)(COC(=O)c2cccnc2)C1O)c1cccnc1 | 14%
COc1cccc(-c2cncnc2Nc2ccc(F)cc2)c1 | -17%
Nc1cc(N)cc(N)c1 | 56µM*
N#Cc1cccc(-c2ccc3ncnc(NC4CCNCC4)c3c2)c1 | -6%
COc1cccc(-c2cc(NCc3cccs3)ncn2)c1 | -18%
N[C@@H](Cc1cc(I)c(Oc2ccc(O)c(I)c2)c(I)c1)C(=O)O | ?
Cc1[nH]cnc1CN1CCc2c(c3ccccc3n2C)C1=O | 10%
Cc1cc2c(c(-c3cnccn3)c1)OC(CNC(=O)c1cc(C(C)C)[nH]n1)C2 (centres undefined) | -8%
CN(C)c1ncc2nc(-c3ccccc3)c(=O)n(-c3ccccc3)c2n1 | 12%
C[C@@H]1[C@H](c2ccccc2)OCCS(=O)(=O)N1Cc1ccccc1Br | ?
COC(=O)C1CCCCN1Cc1ccc2c(c1)CN(C(=O)c1cc(C)nc3cc(F)ccc13)CCO2 (centres undefined) | -2%
COc1ccc2c(=O)cc(-c3ccccc3)oc2c1O | -30%
O=C(c1cnccn1)N1CCC2(CCN(Cc3ccccc3)CC2)CC1 | -8%
Nc1ncn(C2OC(CO)C(O)C2O)c(=O)n1 (centres undefined) | -10%
CCC(C)(Oc1ccc(C2(c3ccc(OC(C)(CC)C(=O)O)cc3)CCCCC2)cc1)C(=O)O (centres undefined) | 19%
c1nc(N2CCOCC2)c2cc(-c3ccoc3)ccc2n1 | -29%
CN(C)Cc1ccccc1-c1nc(N(C)C)c2ccccc2n1 | -4%
Cc1cccc(C(=O)NCc2nc(-c3cccc(NC(=O)C4CCCN(C)C4)c3)oc2C)n1 (centres undefined) | -12%
Cc1nc2sccn2c1CN1Cc2ccccc2OC(c2ccccc2F)C1 (centres undefined) | ?
COc1cc(CN2CCC3(CC2)c2ccccc2[C@@H](NC(=O)c2ccccc2OC)[C@@H]3O)ccc1F | -18%
Cc1nnc(C(C)C)n1C1C[C@H]2CC[C@@H](C1)N2CC[C@H](NC(=O)C1CCC(F)(F)CC1)c1ccccc1 (some centres undefined) | -2%
CO[C@H]1[C@H](NC(=O)c2ccsc2)c2ccccc2C12CCN(Cc1cccn1-c1ccccn1)CC2 | 6%
O=C(NCC1(N2CCOCC2)CCCC1)c1cnn(-c2ncc3c(n2)-c2ccccc2CC3)c1C1CC1 | -27%
Cc1ccc(C(=O)NCCc2nnc3n2CCN(Cc2ccnc4ccccc24)CC3)c(C)c1 | -7%
CCSc1ccc2c(c1)N(CCCN1CCN(C)CC1)c1ccccc1S2 | 4%[56.6 µM]
NCC(O)C1CCCCCCC1 (centres undefined) | -14%
COc1cccc(-c2cc3c(c(OC)c2)OCCN(S(=O)(=O)c2ccccc2OC(F)(F)F)C3)n1 | -30%

Next part.
compound | EPAC2 antag
COc1cc(-c2noc(C)c2C#Cc2ccc(N)cc2)cc(OC)c1OC | ?
CC1CC[C@@]2(OC1)OC1CC3C4CC=C5CC(O)CC[C@@]5(C)C4CC[C@]3(C)C1C2C (some centres undefined) | -9%
Cn1cc(C2=C(c3ccc(Cl)cc3Cl)C(=O)NC2=O)c2ccccc21 | 18%&-8%
Cc1nc2cnc(N3CCNCC3)nc2n(Cc2ccc(F)cc2)c1=O | -5%
O=c1ccn([C@@H]2O[C@H](COP(=O)(O)OP(=O)(O)OP(=O)(O)O)[C@@H](O)[C@H]2O)c(=O)[nH]1 | 2%
COc1ccccc1C1CN(Cc2c(C)nn(C)c2Cl)Cc2ccccc2O1 (centres undefined) | -16%
COc1ccc(C(=O)N2CCC3(CCCN(C)C3)CC2)cc1 | -16%
CC(=O)[C@H]1CC[C@H]2C3CC=C4C[C@@H](O)CC[C@]4(C)C3CC[C@]12C (some centres undefined) | -4%
COC(=O)CCC(C)C1CCC2C3CC[C@H]4CC(O)CC[C@@]4(C)C3CC(O)[C@]12C (some centres undefined) | ?
CN(C)c1ccc(-c2nc(N3CCNCC3)c3ccccc3n2)cc1 | -20%
O=C(C[n+]1ccnc2ccccc21)c1ccc(Br)cc1 | ?
O=C(O)c1cc(=O)c2cccc(O)c2[nH]1 | 11%&-31%
C=C[C@]1(C)C[C@@H](OC(=O)CSC(C)(C)CNC(=O)[C@H](N)C(C)C)[C@]2(C)[C@H](C)CC[C@]3(CCC(=O)[C@H]32)[C@@H](C)[C@@H]1O | -25%
COc1ccccc1N1CCN(CCCCNC(=O)c2ccc(-c3ccc(C(C)=O)cc3)cc2)CC1 | 2%&-25%
Cc1nc2cnc(N3CCN(C)CC3)nc2n(CCC#N)c1=O | -15%
C[C@H]1[C@@H](OC(=O)CCC(=O)O)O[C@@H]2OC3(C)CC[C@H]4[C@H](C)CC[C@@H]1[C@@]24OO3 | 1%
Cc1o[nH]c(=O)c1CC[C@H](N)C(=O)O | -12%
N[C@H](C(=O)O)[C@H](O)C(=O)O | -25%&10%&-3%
O=C(c1ccco1)N1CCC2(CCCN(C(c3ccccc3)c3ccccc3)C2)CC1 | ?
O=C(c1cnccn1)N1CCC2(CCCN(C(c3ccccc3)c3ccccc3)C2)CC1 | ?
N#Cc1cccc(NC(=O)N2CCC3(CC2)CCN(C(=O)c2csnn2)CC3)c1 | -19%
CC(C)N(c1ccc(C=O)cc1)C(C)C | -18%
COCC(=O)Nc1cc(C(=O)N2CCc3c(Cl)cccc3C2)c2c(c1)nc(-c1ccncc1)n2C | -2%
CCCCCCCCCCCCC(C(=O)O)C(C)C(=O)O (centres undefined) | -23%
Cc1cc(-c2cc(F)cc3c2OC(CNC(=O)CCn2cncn2)C3)ccc1F (centres undefined) | 79µM*
COc1cccc(Nc2ncc3nc(-c4ccccc4)c(=O)n(C[C@H]4CCCO4)c3n2)c1 | -10%
CN(C)c1ncc2nc(-c3ccc(Cl)cc3)c(=O)n(-c3ccccc3)c2n1 | -6%
COCC(=O)N1CCC2(CC1)CCN(C(=O)NC(C)C)CC2 | -16%
Cc1c(C(=O)N(C)CC2CCCN(C)C2)cnn1-c1nccc(-c2ccco2)n1 (centres undefined) | 4%
COc1cc(N)c(N)cc1OC | -18%
Fc1ccc(Nc2nc(-c3ccoc3)nc3ccccc23)cc1 | -3%
COc1cc(=O)n2c(c1C(=O)NC(C)c1ccco1)CCN(Cc1ccccc1C(F)(F)F)CC2 (centres undefined) | -15%
Nc1ncnc2c1ncn2C1CC(O)C(CO)O1 (centres undefined) | -31%&-12%
O=c1[nH]c(=O)n([C@H]2C[C@H](O)[C@@H](CO)O2)cc1F | -11%&4%
CCn1nc(C)c(CN2Cc3ccccc3OC(c3ccccc3OC)C2)c1C (centres undefined) | -22%
Cc1nc2cnc(N(C)C)nc2n(C2CC2)c1=O | 1%
CCOC(=O)c1cnc2c(cnn2CC)c1NN=C(C)C | -26%&-16%&-20%
CNc1cc(-c2c(C)noc2C)ncn1 | -14%
COc1ccc(-c2nc3cnc(OC)nc3n(-c3ccccc3)c2=O)cc1 | 1%
COc1ccccc1N1CCN(CCCCNS(=O)(=O)c2cccc3c(N(C)C)cccc23)CC1 | -28%
COCCn1c(=O)c(-c2ccccc2)nc2cnc(OCc3ccccc3)nc21 | -32%
CC(C)=CCC[C@@](C)(O)[C@H]1CC=C(C)CC1 | -8%
Cc1cc(C(=O)N2CCOc3ccc(CN4CCC(Oc5cccnc5)CC4)cc3C2)c(C)o1 | 9%
CC1(C)C(\C=C/C=C\C=C/C=C2/N(CCCCS(=O)(=O)O)c3ccc4ccccc4c3C2(C)C)=[N+](CCCCS(=O)(=O)[O-])c2ccc3ccccc3c21 | -28%
CC/C(=C(\c1ccccc1)c1ccc(OCCN(C)C)cc1)c1ccccc1 | ?
CCCCNC(=O)O[C@@H]1C[C@@H]2CCN3C(=O)CCC[C@H]([C@H]1CC)[C@H]23 | ?
COc1ccc2[nH]cc(CCNc3nc(-c4ccccc4OC)nc4ccccc34)c2c1 | -21%
COCCn1c(=O)c(-c2ccc(OC)cc2)nc2cnc(Oc3cccc(Cl)c3)nc21 | -29%
COc1ccccc1N1CCN(c2nc(CNC(=O)c3ccc4c(c3)OCO4)nc3ccccc23)CC1 | ?
O=C(c1ccoc1)N1CCOc2ccc(CN3CCC(Oc4cccnc4)CC3)cc2C1 | ?

(listing goes on)
compound | EPAC2 antag
Cc1ccnc2cc(Cl)cc(Cl)c12 | ?
O=c1cc(/C=C/c2ccc([N+](=O)[O-])cc2)c2ccccc2[nH]1 | -29%
CCCC(=O)O[C@]1(C(=O)COC(=O)CC)CC[C@H]2[C@@H]3CCC4=CC(=O)CC[C@]4(C)[C@H]3[C@@H](O)C[C@@]21C | -14%
COc1ncc2nc(-c3cn(C)c4ccccc34)c(=O)n(CCc3ccccc3)c2n1 | -4%
Cc1cc[n+](CC(=O)c2ccc(F)cc2)c2ccccc12 | -10%
CN1CCN(C2=Nc3ccccc3Oc3ccc(Cl)cc32)CC1 | -30%
CCCCN(CCC(=O)O)c1ccc(/C=C/c2ccnc3ccccc23)cc1 | 45%[activator]
c1csc(CNc2ncnc3ccc(-c4ccoc4)cc23)c1 | -26%
N#Cc1cccc(NC(=O)N2CCCC3(CCN(C(=O)c4cccc(F)c4)CC3)C2)c1 | -27%
COc1cc2c(cc1OC)[C@@H](Cc1cc(OC)c(OC)c(OC)c1)[N+](C)(CCCOC(=O)CC/C=C/CCC(=O)OCCC[N+]1(C)CCc3cc(OC)c(OC)cc3[C@H]1Cc1cc(OC)c(OC)c(OC)c1)CC2 (some centres undefined) | 5%&1%
C=C1C2CC[C@@]3(C)C(c4ccoc4)OC(=O)C[C@@]13OC1CC(=O)C(C)(C)C(C(O)C(=O)OC)[C@]12C (some centres undefined) | -15%
C=C1C[C@@]23CC4C5[C@@]6(C)C[C@H](O)C[C@@]57C2[C@H](O)[C@@H]1[C@H](O)[C@H]3[C@H]7N4C6 | -8%
CO[C@H]1[C@H](NC(=O)c2ccncc2)c2ccccc2C12CCN(C(=O)c1ccoc1)CC2 | ?
NS(=O)(=O)c1cc2c(cc1Cl)NC(CSCc1ccccc1)=NS2(=O)=O | -12%[56.6 µM]
CC1CN(CC(=O)NCCC2COc3ccccc3O2)Cc2cc(Cl)ccc2O1 (centres undefined) | -36%

Shown with each value named: part of the list above.
Structure: COc1ncc2nc(-c3cn(C)c4ccccc34)c(=O)n(CCc3ccccc3)c2n1
  EPAC2 antag: -4%
Structure: O=c1cc(/C=C/c2ccc([N+](=O)[O-])cc2)c2ccccc2[nH]1
  EPAC2 antag: -29%
Structure: c1csc(CNc2ncnc3ccc(-c4ccoc4)cc23)c1
  EPAC2 antag: -26%
Structure: C=C1C[C@@]23CC4C5[C@@]6(C)C[C@H](O)C[C@@]57C2[C@H](O)[C@@H]1[C@H](O)[C@H]3[C@H]7N4C6
  EPAC2 antag: -8%

Exported with each value named: entries from further up
C[C@H]1[C@@H](OC(=O)CCC(=O)O)O[C@@H]2OC3(C)CC[C@H]4[C@H](C)CC[C@@H]1[C@@]24OO3
  EPAC2 antag: 1%

COc1ccccc1N1CCN(CCCCNC(=O)c2ccc(-c3ccc(C(C)=O)cc3)cc2)CC1
  EPAC2 antag: 2%&-25%
